ClpP mod – qHTS Assay for Activators of ClpP | ATP-dependent Clp protease proteolytic subunit (Bacillus subtilis (strain 168)), P80244 | actives 1.9% (n = 340,000) | purified B. subtilis ClpP, FRET peptide cleavage, 20 min | Potency, µM (highest dose often 57.5 µM), for the others: at the highest dose activity change, negative = active | AID 651965, 2013; active = well fitted falling curve with a large enough effect; inconclusive = small, poorly fitted or top-dose-only effect; inactive = no such curve, though single readings can be large or run the other way; note: potency is the fitted concentration of half-maximal effect; the source files actives as falling curves though it sought activators and does not explain the sign; nearly all actives have a fitted effect of over 65% in size; many hits overshoot -100%
Target sequence (P80244 whole entry, looked up): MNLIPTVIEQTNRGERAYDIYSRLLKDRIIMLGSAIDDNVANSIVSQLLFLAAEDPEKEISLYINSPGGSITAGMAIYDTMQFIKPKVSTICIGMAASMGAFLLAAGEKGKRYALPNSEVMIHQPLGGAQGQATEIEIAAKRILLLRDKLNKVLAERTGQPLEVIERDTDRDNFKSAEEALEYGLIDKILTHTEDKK
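FRET quenching reversal measured ClpP activation: 10 microg/mL B. subtilis ClpP at pH 8 with the FRET-FV decapeptide, read at 430 nm after 320 nm excitation. The 20-min minus 0-min signal was scaled between DMSO/no-enzyme wells and ADEP (5.8 microM final).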
D2 PAM – Beta-Arrestin HTS for Positive Allosteric Modulators of the Human D2 Dopamine Receptor: Potentiators. D(2) dopamine receptor (Homo sapiens), P14416. DiscoveRx D2 beta-arrestin cells, luminescence, 90 min; 100% = 57 uM dopamine signal. AID 624464, 2012. actives 0.23% (n = 360,000). potentiation, % (concentration not given with the values); active = potentiation of 50% or more; inconclusive = 30% to 50%; inactive = 30% or less;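 note: compound concentration not given in the record; tested on top of an EC20 dose of dopamine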
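PathHunter beta-arrestin assay in DiscoveRx D2 cells. Compounds were added with an EC20 of dopamine (50 nM final) for 90 min at 37 deg C. Luminescence was read 1 h after detection reagent, with 57 uM dopamine as the EC100 control.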
Sfp PPTase inh – qHTS Assay for Inhibitors of Bacillus subtilis Sfp phosphopantetheinyl transferase (PPTase). Biochemical Sfp PPTase activity, qHTS. 4'-phosphopantetheinyl transferase ffp (Bacillus subtilis), Q9F4F7. actives 3.5% (n = 310,000). AID 1490, 2009. Potency, µM, inactives show max response, negative = inhibition, usual class: inhibitors; active = well fitted inhibition curve with a large enough effect; inconclusive = small, poorly fitted or top-dose-only effect, or another doubt; inactive = no such curve, though single readings can be large or run the other way;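 note: the enzyme is Sfp with the accession as filed and its product quenches rhodamine fluorescence; potency is the fitted concentration of half-maximal effect; 0% = enzyme reaction without inhibitor and -100% = no enzyme wells; top concentration of the series not given in the record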
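Fluorescence-quenching assay with 15 nM Sfp, 5 uM rhodamine-CoA and 12.5 uM BHQ-2-labelled ybbR peptide in pH 7.6 Hepes/MgCl2 buffer. Enzyme was pre-incubated with compound for 15 min at room temperature. Rate was taken from the 30-min fluorescence change (525/598 nm).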
gsp ag – qHTS for Agonist of gsp, the Etiologic Mutation Responsible for Fibrous Dysplasia/McCune-Albright Syndrome: qHTS | gsp mutant cells, cAMP HTRF, 30 min; control for the full effect not named in the record | Potency, µM (highest dose often 76.9 µM), for the others: top-dose activation (cAMP increase), hits mostly activators | actives 0.13% (n = 340,000) | AID 624287, 2012; active = well fitted activation curve with a large enough effect; inconclusive = small, poorly fitted or top-dose-only effect, or another doubt; inactive = no such curve, though single readings can be large or run the other way; cell line not stated here;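 note: phosphodiesterase inhibitor Ro 20-1724 added with compounds to block cAMP breakdown; potency is the fitted concentration of half-maximal effect; nearly all actives have a fitted effect of over 60% in size; about a fifth of the inactives were tested at one dose only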
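Cells stably selected in G418 were plated at 2000/well, grown 16-24 hr, then given compounds in DMSO with the PDE inhibitor […] (300 uM solution added) for 30 min at 37C; cAMP was read by HTRF.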
TRPV1 potentiator – HTS Assay for Compounds that Act as Potentiators of the Vanilloid Receptor 1 | Transient receptor potential cation channel subfamily V member 1 (Homo sapiens), Q8NER1 | TRPV1-expressing cells, Fluo-8 calcium influx, capsaicin EC20 potentiation; host cell line not named in the record; control for the full effect not named in the record | potentiation, % at 8.33 µM | actives 0.02% (n = 320,000); active means potentiation above 80%; inconclusive means 30% to 80%; inactive means below 30%; note: 0% is about no effect
Target sequence (Q8NER1 whole entry, looked up): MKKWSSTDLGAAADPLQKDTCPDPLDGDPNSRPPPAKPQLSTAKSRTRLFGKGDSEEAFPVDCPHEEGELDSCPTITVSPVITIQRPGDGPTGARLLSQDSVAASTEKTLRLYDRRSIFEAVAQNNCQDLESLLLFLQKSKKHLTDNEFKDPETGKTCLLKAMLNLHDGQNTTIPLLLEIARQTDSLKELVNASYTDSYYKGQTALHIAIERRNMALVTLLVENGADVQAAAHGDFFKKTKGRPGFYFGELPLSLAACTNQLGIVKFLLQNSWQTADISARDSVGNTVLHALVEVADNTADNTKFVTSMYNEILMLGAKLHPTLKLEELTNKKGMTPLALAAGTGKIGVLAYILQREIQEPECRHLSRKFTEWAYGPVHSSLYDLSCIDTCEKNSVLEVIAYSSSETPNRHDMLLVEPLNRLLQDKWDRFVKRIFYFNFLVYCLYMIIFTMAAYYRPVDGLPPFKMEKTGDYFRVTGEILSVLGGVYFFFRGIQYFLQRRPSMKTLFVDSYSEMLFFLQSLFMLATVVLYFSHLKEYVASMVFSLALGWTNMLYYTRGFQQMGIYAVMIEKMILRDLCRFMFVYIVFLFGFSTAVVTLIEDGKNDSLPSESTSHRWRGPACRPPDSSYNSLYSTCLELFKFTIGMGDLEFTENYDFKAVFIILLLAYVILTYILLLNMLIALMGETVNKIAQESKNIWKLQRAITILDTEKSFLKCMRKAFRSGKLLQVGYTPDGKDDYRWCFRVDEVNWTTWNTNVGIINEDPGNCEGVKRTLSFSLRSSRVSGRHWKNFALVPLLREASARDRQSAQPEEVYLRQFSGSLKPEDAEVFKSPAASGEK
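Fluo-8 calcium influx in TRPV1-expressing cells, kinetic read (ex 480/em 520 nm). Compound added and read 3 min for agonist activity, followed by capsaicin at EC20 final and 2 min further read for enhancement.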
Menin MLL FP FL – qHTS Assay for Inhibitors Targeting the Menin-MLL Interaction in MLL Related Leukemias: Competition With Fluorescein Labeled MLL-derived Peptide; Fluorescence polarization, fluorescein-MLL peptide displacement from menin; FP activity change, % at 61.4 µM; 290,000 tested, under 10 active; inconclusive = falling polarisation curve, or a change in total fluorescence; inactive = total fluorescence flat and polarisation flat or rising; no compound was filed as active; the % refers to the polarisation; negative = inhibition;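 note: % of control where 0% means no effect; inhibitors lower the polarisation; unlabelled MLL peptide was the positive control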
gsp antag – qHTS for Antagonists of gsp, the Etiologic Mutation Responsible for Fibrous Dysplasia/McCune-Albright Syndrome: qHTS | gsp-mutant cells, cAMP HTRF, 30 min; control for the full effect not named in the record | Potency, µM (highest dose often 76.9 µM), for inactives: at the highest dose activity change, negative = inhibition, most hits filed as inhibitors | actives 0.4% (n = 340,000) | AID 624288, 2012; active = falling curve of any shape with a large fitted effect; inconclusive = falling curve, mostly with a smaller effect; inactive = flat or rising curve; cell line not stated here;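 note: intracellular cAMP measured with PDE inhibitor Ro 20-1724 present during compound exposure; potency is the fitted concentration of half-maximal effect; % is set by controls: 0 for no effect and ±100 for the full control effect; nearly all actives have a fitted effect of over 65% in size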
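Cells, 2000/well, grown 16–24 h in DMEM 10% FBS with 0.5 mg/ml G418, then compounds plus […] (300 uM addition stock), 30 min at 37C. cAMP read by HTRF (cAMP-d2 and anti-cAMP antibody-K in lysis buffer) after 30 min RT.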
* marks the source's active call; other numbers are inactive results; u = inconclusive; x = not tested or not shown; & = joins results of further samples; [ ] = remark or other dose.

SMILES	ClpP mod	D2 PAM	Sfp PPTase inh	gsp ag	TRPV1 potentiator	Menin MLL FP FL	gsp antag
COc1ccc(NC(=O)c2c(F)cccc2F)cc1S(=O)(=O)Nc1ccc(Br)cc1	-0.6%	-8	15%	-27%	u	-1.0	-14%
COc1ccc(OCC(=O)N2CCN(S(=O)(=O)c3ccccc3[N+](=O)[O-])CC2)cc1	x	-5	-3%	-12%	7	0.6	-9%
C/C(=N\O)c1c(O)cc(-c2ccccc2)n(-c2ccccc2)c1=O	0.1%	-1	-6%	-15%[15.4 µM]	12	6.5	4%
Cc1cc(C(=O)NCC(=O)OC(C)C(=O)N2CCOCC2)ccc1[N+](=O)[O-] (stereo not given)	-2.6%	-2	x	14%	-3	x	7%
c1ccc(OCc2nc3ccccc3[nH]2)cc1	0.7%	-3	-1%	-60%[inhibitor]	-21	-0.6	12%
CCOC(=O)Cc1csc(NC(=O)Cc2ccc([N+](=O)[O-])cc2)n1	-0.6%	-6	8%	1%	13	-0.9	3%
CCOC(=O)C1CCCN(C(=O)c2cn(CC)c(=O)c3cc(OC)c(OC)cc23)C1 (stereo not given)	u	-7	17%	-4%	u	-0.7	19%
O=C(O)CCc1ccc(-c2ccc(Br)cc2)n1-c1ccc(O)cc1	x	5	11%	u	5	1.7	7%
NC(=O)C1CCN(S(=O)(=O)c2ccc3c(c2)OCCO3)CC1	x	1	12%	-8%[15.4 µM]	10	2.2	10%
Cc1ccsc1C1NC(=O)c2c(sc3c2CCN(C)C3)N1 (stereo not given)	3.8%	-10	5%	-29%	14	u	-8%
COc1ccc(N(C(=O)CCl)C(C)(C(=O)Nc2c(C)cccc2C)c2ccccn2)cc1 (stereo not given)	-1.4%	-3	7%	12%	2	u	4%
O=S(=O)(Cc1cc(Sc2ccc(Cl)cc2)nc(-c2ccccc2)n1)c1ccccc1	-6.0%	-4	4%	u	-8	3.4	-4%
COc1ccc(C(=O)NCc2cccs2)cc1S(=O)(=O)N1CCOCC1	0.1%	-3	9%	7%[15.4 µM]	-15	12	10%
COc1ccc(OC)c(NC(=O)c2cnc3n(c2=O)CCS3)c1	28%	-1	-21%	-4%	16	0.3	-8%
Cc1ccc(-c2nc3ccccc3[nH]2)cc1NC(=S)NC(=O)c1ccccc1Br	9.6%	-39	4%	u	10	0.0	-18%

Whole records as entered above:
`Cc1cc(C(=O)NCC(=O)OC(C)C(=O)N2CCOCC2)ccc1[N+](=O)[O-]` (stereo not given) in the list: ClpP mod = -2.6%; D2 PAM = -2; Sfp PPTase inh = x; gsp ag = 14%; TRPV1 potentiator = -3; Menin MLL FP FL = x; gsp antag = 7%
`O=C(O)CCc1ccc(-c2ccc(Br)cc2)n1-c1ccc(O)cc1` in the list: ClpP mod = x; D2 PAM = 5; Sfp PPTase inh = 11%; gsp ag = u; TRPV1 potentiator = 5; Menin MLL FP FL = 1.7; gsp antag = 7%

The listing continues.
SMILES	ClpP mod	D2 PAM	Sfp PPTase inh	gsp ag	TRPV1 potentiator	Menin MLL FP FL	gsp antag
CCCSc1ccc([C@H]2N[C@@](CC(C)C)(C(=O)OC)[C@H]3C(=O)N(C)C(=O)[C@@H]23)cc1	-3.0%	-35	x	x	-17	x	-12%
O=P(O)(CCCCP(=O)(O)CCc1ccccc1)CCc1ccccc1	x	x	8%	x	-4	3.0	x
COc1cc(C2C(C(=O)Nc3ccccc3OC)=C(C)Nc3ncnn32)ccc1O (stereo not given)	1.2%	1	-14%	3%	-2	0.1	7%
Cc1ccccc1NC(=O)CSc1nc2ccc(Nc3nc(N4CCOCC4)nc(N4CCOCC4)n3)cc2s1	-4.4%	-4	-17%	-19%	10	1.2	-6%
O=C(NC1CCCC1)C(c1ccc(Cl)cc1)N1CCc2ccccc21 (stereo not given)	3.7%	-5	3%	-26%	-7	2.8	2%
O=C(O)C1CCC(Cn2c(SCc3cc(=O)n4cc(Br)ccc4n3)nc3ccsc3c2=O)CC1 (stereo not given)	x	9	8%	21%[15.4 µM]	15	0.2	x
Cc1cccc(NC(=O)c2ccc(Cn3cc(C(F)(F)F)ccc3=O)cc2)c1	-1.4%	-23	11%	8%	x	0.8	-5%
O=C(CN1C2CCC1CC(NC(=O)C1CC1)C2)NCc1ccccc1 (stereo not given)	1.6%	9	5%	u	2	-2.7	11%
CC(C)[C@H](NS(=O)(=O)c1ccccc1F)C(=O)NC1CCCCC1	0.2%	-2	x	-27%	x	x	9%
CCOc1ccc(-n2c(SCC(=O)Nc3ccc4c(c3)OCO4)nc3c(c2=O)SCC3)cc1	-1.2%	-4	18%	14%	-16	0.4	1%
CCN(CC)C(=O)CSc1nc(O)c(Cc2ccccc2)c(=O)n1-c1ccc(C)cc1	-0.2%	1	12%	13%	2	2.0	-14%
CCSc1nc2nn(-c3ccccc3)c(=O)c-2c2n1CCCCC2	45%	-8	-18%	u	-8	-1.2	-1%
Cn1nc(C(=O)Nc2nnc(C3CC3)s2)c2ccccc2c1=O	1.2%	-7	-15%	-21%	4	-2.1	-14%
CC(=O)Oc1ccc(N(C(C)=O)S(=O)(=O)c2ccc(C)cc2)c2ccccc12	0.3%	u	x	-10%[15.4 µM]	x	x	-19%
COc1ccc(/C=C(\C#N)C(=O)NCCc2ccccc2)cc1OCc1ccccc1	-24%	-7	13%	0%	18	1.8	-4%
CCc1ccccc1NC(=O)Cc1ccc(-n2cccc2)cc1	0.0%	-8	-5%	12%	-12	8.7	-11%
CCOC(=O)C1CCN(C(=O)c2cccc(S(=O)(=O)N(CC)c3ccccc3)c2)CC1	-2.3%	-4	x	5%	-9	x	-14%
Cc1cc(C)c(NS(=O)(=O)c2ccc(NC(=O)c3cccs3)cc2)c(C)c1	-0.7%	4	10%	8%	3	0.0	-3%
CCc1ccccc1NC(=O)CN(C)C(=O)COC(=O)c1ccccc1Cl	-1.8%	-9	x	9%[15.4 µM]	-1	x	5%
OCC[C@@H]1C[C@H](O)[C@@H](O)[C@@]2(CCc3ccccc3O2)O1	-1.7%	-8	9%	-19%	u	-3.7	9%
Cc1cc(C)n2cc(CSCC(=O)O)nc2n1	0.3%	13	-30%	2%	-10	2.0	-1%
CC(C)Cc1nnc(NC(=O)CCC(=O)NCc2ccccc2Cl)s1	x	-11	19%	2%	10	-0.4	12%
CCOc1ccc(N2CC(C(=O)NNC(=O)c3ccc(F)cc3)CC2=O)cc1 (stereo not given)	-0.4%	-4	x	1%	1	x	7%
CN(Cc1ccccc1)C(=O)COC(=O)CCC(=O)c1ccc(F)cc1	0.1%	-4	x	-1%	x	x	-11%
Cc1ccc(S(=O)(=O)NCC2CCC(C(=O)NC3CCCCC3)CC2)cc1 (stereo not given)	x	-9	7%	4%[15.4 µM]	-11	5.2	3%
Cc1ccc(NC(=O)c2ccc(CSc3nccc(C)n3)cc2)cc1	2.4%	-30	3%	-28%	-6	7.3	-3%
O=C1C(Cl)=C(NCC2CCCO2)C(=O)N1c1cccc(Cl)c1Cl (stereo not given)	-0.6%	1	8%	-3%	-10	2.6	-24%
CC1(c2ccccc2)CC(c2ccccc2)=Nc2nonc2N1 (stereo not given)	1.2%	-7	-7%	-9%	-14	-0.3	-23%
C[N+](C)(CC#N)C/C=C\c1ccccc1	x	0	20%	23%	-2	-0.2	14%
CCOC(=O)Cn1c(=N)n(CCOc2ccc(OC)cc2)c2ccccc21	-0.1%&-1.8%	3	6%	10%	-15	-2.0	9%
NC(=O)[C@@H]1CCCN1C(=O)c1cc(COc2ccc(F)cc2F)on1	-0.2%	-3	7%	u	9	x	7%
O=C(Nc1ccccc1)OCC1CCCO1 (stereo not given)	x	-3	x	13%	x	x	11%
Cc1ccc(NC(=S)Nc2ccc(OC(F)F)c(Cl)c2)cc1Cl	1.7%	-3	-10%	-32%[inhibitor]	-2	1.2	-20%
C[C@H]1CN(c2ccc(Br)cc2)C(=O)[C@@H]1CC(=O)Nc1ccc(Br)cc1	0.4%	-5	x	6%	x	x	x
CCN(CC(=O)NCc1ccc(F)cc1)CC(=O)Nc1ccc(Br)cc1F	x	-6	x	20%	x	x	0%
O=C(Nc1ccc(S(=O)(=O)Nc2ncccn2)cc1)c1ccco1	0.2%	1	-6%	-19%	6	2.7	7%
Cc1ccc(S(=O)(=O)Nc2nc3n(n2)C(c2ccc(Cl)cc2)CC(=O)N3)cc1 (stereo not given)	1.2%	-16	14%	-14%	1	-1.3	2%
CCn1c(CSc2nc3ccccc3n2C)nc2ccccc21	-4.4%	-31	-14%	8%	-1	0.0	-4%
COCc1cc(CNC(=O)C2CCC(=O)N(Cc3ccccc3OC)C2)[nH]n1 (stereo not given)	-4.4%	-1	11%	-27%	-10	x	-15%
CCNC(=O)CN(c1ccc(Oc2ccccc2)cc1)S(=O)(=O)c1ccccc1	0.6%	-15	-1%	-12%	19	x	-16%
COc1ccc(-c2nnn(CC(=O)N(C3CCCCC3)C(C)C(=O)NC3CCCC3)n2)cc1OC (stereo not given)	-1.0%	2	11%	-17%	-7	-0.4	-5%
CC(=O)Oc1ccc(C(=O)Nc2cccc(NC(=O)c3ccco3)c2)cc1	x	-1	12%	21%[15.4 µM]	6	-1.5	-20%
CCOC(=O)C(NC(=O)N1CCCCC1)(c1ccccc1)C(F)(F)F (stereo not given)	-2.2%	1	17%	u	-6	2.4	11%
O=C1c2cccc(OCC(=O)N3N=C(c4cccs4)CC3c3ccc(F)cc3)c2CCN1Cc1ccccc1 (stereo not given)	16µM*	-8	25%	-31%	4	-1.3	3%
Cc1cc(C)nc(-n2nc(C)c3c(=O)[nH]c(C(F)(F)F)nc32)n1	-1.5%	-13	-29%	-17%	-3	1.7	8%
